# Mtb H37Rv: Mycobacterium tuberculosis H37Rv growth inhibition, cell based, confirmatory dose response (AID 1949). most inactive calls were filed without a number and no value below 0 was filed. hit rate 1.6% among 100,000. one-dose inhibition, % at 10 µg/mL; IC50 in µg/mL for titrated hits;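 active means confirmed in a dose series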;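 further: bacteria grown 7 days with compound before Alamar blue readout; 0% = untreated bacteria and 100% = reference antibiotic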
# An asterisk follows results filed as active; i = inactive. These rows are one share of the data; count on the stated rates, not on these rows.
SMILES,Mtb H37Rv
CCCCOc1ccc(C2C(C(=O)c3ccc(C)o3)=C(O)C(=O)N2CCCOC)cc1 (centres undefined),i
Cc1ccc(-c2nc3cc(NC(=S)NC(=O)C(C)(C)C)ccc3o2)cc1Cl,i
O=C(NC(=O)N1CCCCC1)c1ccccc1,i
CC(=O)Nc1ccc(NC(=O)CSc2nnc(-c3ccc(NC(=O)c4ccc(F)cc4)cc3)n2C)cc1,i
O=C(Nc1ccc(C2CC2(Cl)Cl)cc1)c1cccs1 (centres undefined),i
CCOC(=O)c1ccc(NC(=O)CN2C(=O)C3C4C=CC(C5CC45)C3C2=O)cc1 (centres undefined),i
CC(=O)OCCCN1CCOCC1,i
O=C(Nc1ccc2[nH]c(=O)[nH]c2c1)c1ccc(-c2ccccc2)cc1,i
Cc1ccc(NC(=O)CSc2nnc(CSCc3ccccc3)n2C)cc1Cl,i
COc1ccc(C(=O)N(CCCCN2C(=O)c3ccccc3C2=O)c2ccc(Cl)cc2)cc1,i
O=C(CSCc1ccccc1Cl)Nc1ccccc1C(=O)NCCc1ccccc1,i
CCCCC(CC)CNC(=O)CCC(=O)O (centres undefined),i
CC(C)c1ccc(NC(=O)CCCOc2ccc(Cl)cc2)cc1,2%
CCOc1ccc(NC(=O)CSCc2ccc(Cl)c(Cl)c2)cc1,42%
CN(C)c1ccc(C(=S)N2CCN(C(=S)Nc3ccccc3)CC2)cc1,i
O=c1c2cccc3c2c(nn1-c1ccc2ccccc2c1)-c1ccccc1-3,i
CCOc1cc(C=O)ccc1OC(=O)C1CC1,i
CCC(C)c1ccc(NC(=S)N2CCN(S(=O)(=O)c3ccc(Cl)cc3)CC2)cc1 (centres undefined),i
Cc1ccc(NC(=O)CN2C(=O)CNC2=O)cc1,i
CC1CCCN(C(=O)c2ccccc2NC(=O)c2ccc(Br)cc2)C1 (centres undefined),1%
COc1ccc(NC(=S)Nc2ccc(C(=O)N3CCOCC3)cc2)cc1OC,i
CCCn1cnc2sc(C(=O)OC)c(C)c2c1=O,i
CCOc1cc(C(=O)NCc2ccc(OC)c(OC)c2)cc(OCC)c1OCC,i
COCCNC(=O)c1ccccc1NC(=O)CN(c1cccc(C(F)(F)F)c1)S(C)(=O)=O,i
CCOc1ccc(C2/C(=C(\O)c3c(C)[nH]c(C(=O)OC)c3C)C(=O)C(=O)N2CCCN(C)C)cc1OC (centres undefined),i
Cc1ccc(-c2noc(CCCOc3ccccc3)n2)cc1,1%
COC(=O)c1c(NC(=O)C2c3ccccc3Oc3ccccc32)sc2c1CCC2,2%
COc1ccccc1C(=O)Nc1c(C(=O)c2ccc(C)c(F)c2)oc2ccccc12,5%
Cc1ccc(C)c(NC(=O)CSc2nnc(CCc3ccccc3)n2C)c1,i
COc1ccc(S(=O)(=O)Nc2ccc(NS(=O)(=O)c3ccc(C)cc3)cc2)cc1,i
COc1ccc(Cl)cc1S(=O)(=O)NC1CCCC1,i
O=C(CSc1nnc(-c2cccc(F)c2)n1-c1ccccc1)NCc1ccco1,i
O=C(O)COc1ccc(NC(=O)COc2ccc3ccccc3c2)cc1,i
O=C(Nc1cccc(Cl)c1Cl)C1CCCC1,i
Cc1cc(Cl)ccc1NC(=S)NCCCO,i
COC(=O)c1c(NC(=O)CN2C(=O)c3ccccc3C2=O)sc2c1C(C(=O)OC)CC2 (centres undefined),i
CCOC(=O)c1sc(NC(=O)CSc2n[nH]c(-c3ccccc3)n2)c(C(=O)OCC)c1C,i
COc1ccc(N2CCN(C(=O)Nc3ccc(Cl)cc3Cl)CC2)cc1,i
O=C(O)c1cccnc1-c1nc2ccccc2s1,3%
CCn1cnc2cc(NC(C)=O)ccc21,i

# A draw from above in order of molecular weight, descending.
SMILES,Mtb H37Rv
CCOC(=O)c1sc(NC(=O)CSc2n[nH]c(-c3ccccc3)n2)c(C(=O)OCC)c1C,i
COCCNC(=O)c1ccccc1NC(=O)CN(c1cccc(C(F)(F)F)c1)S(C)(=O)=O,i
CCC(C)c1ccc(NC(=S)N2CCN(S(=O)(=O)c3ccc(Cl)cc3)CC2)cc1 (centres undefined),i
COC(=O)c1c(NC(=O)CN2C(=O)c3ccccc3C2=O)sc2c1C(C(=O)OC)CC2 (centres undefined),i
COc1ccc(S(=O)(=O)Nc2ccc(NS(=O)(=O)c3ccc(C)cc3)cc2)cc1,i
O=C(CSc1nnc(-c2cccc(F)c2)n1-c1ccccc1)NCc1ccco1,i
COC(=O)c1c(NC(=O)C2c3ccccc3Oc3ccccc32)sc2c1CCC2,2%
COc1ccccc1C(=O)Nc1c(C(=O)c2ccc(C)c(F)c2)oc2ccccc12,5%
COc1ccc(NC(=S)Nc2ccc(C(=O)N3CCOCC3)cc2)cc1OC,i
Cc1ccc(C)c(NC(=O)CSc2nnc(CCc3ccccc3)n2C)c1,i
COc1ccc(N2CCN(C(=O)Nc3ccc(Cl)cc3Cl)CC2)cc1,i
O=C(O)COc1ccc(NC(=O)COc2ccc3ccccc3c2)cc1,i
Cc1ccc(-c2noc(CCCOc3ccccc3)n2)cc1,1%
COc1ccc(Cl)cc1S(=O)(=O)NC1CCCC1,i
CCCn1cnc2sc(C(=O)OC)c(C)c2c1=O,i
Cc1cc(Cl)ccc1NC(=S)NCCCO,i
O=C(Nc1cccc(Cl)c1Cl)C1CCCC1,i
O=C(O)c1cccnc1-c1nc2ccccc2s1,3%
Cc1ccc(NC(=O)CN2C(=O)CNC2=O)cc1,i
CCn1cnc2cc(NC(C)=O)ccc21,i

# Some of the entries so far, field by field.
COc1ccc(S(=O)(=O)Nc2ccc(NS(=O)(=O)c3ccc(C)cc3)cc2)cc1
  Mtb H37Rv: i

O=C(O)COc1ccc(NC(=O)COc2ccc3ccccc3c2)cc1
  Mtb H37Rv: i

# Additional structures
SMILES,Mtb H37Rv
CCOc1ccc(NC2C=CS(=O)(=O)C2)cc1 (centres undefined),i
O=C(CCC1CCCC1)Nc1ccccc1Br,i
O=S(=O)(NCCc1cccc(Cl)c1)c1ccc(F)cc1,i
Clc1ccc(OCCN2CCCC2)cc1Cl,i
Cc1ccc(C(=O)/C=C/c2ccc(-c3ccc(F)cc3)o2)cc1,i
Nc1ncnc(Nc2cccc(F)c2)c1[N+](=O)[O-],i
c1cc(-c2nnc(-c3ccncc3)o2)ccn1,i
COc1cc(CO)cc(Br)c1OCc1ccccc1C#N,i
CCCc1nc(Cc2ccc(OC)cc2)no1,13%
Cc1ccnc(NC(=S)NC(=O)/C=C/c2ccccc2)c1,2%
OCCCNCc1ccc(Cl)cc1Cl,i
CCC(NC(=O)NNC(=O)c1ccc(OC)c(OC)c1)(C(F)(F)F)C(F)(F)F,1%
Cc1cccc(C(=O)NCc2nnc(SCC(=O)Nc3ccc(Br)c(C)c3)n2C)c1,i
O=C(Nc1ccccc1O)c1ccc2c(c1)C(=O)N(CC1CCCO1)C2=O (centres undefined),i
Nc1nc(CSc2nnc(-c3ccncc3)o2)nc(Nc2ccc(F)cc2)n1,i
O=C(Nc1ccc(Br)cc1)C1CCN(C(=O)c2ccc(Cl)cc2Cl)CC1,i
COc1ccc2c(c1)c(=O)oc1cc(OCC(=O)c3ccc(F)cc3)ccc12,i
CCN(C(=O)c1sc2cc(Cl)ccc2c1Cl)c1ccc2c(c1)OCO2,i
Cc1ccccc1CSCCNC(=O)c1ccc(N(C)S(=O)(=O)c2ccccc2)cc1,i
CCOCCCNS(=O)(=O)c1ccc(C)cc1,i
CCCc1cc(=O)oc2cc(OCc3cccc(OC)c3)ccc12,i
CNC(=O)c1ccc(N(Cc2ccc(C)cc2)S(C)(=O)=O)cc1,i
CCOC(=O)COc1ccc(Br)cc1C1NC(=S)NC(C)=C1C(=O)Nc1ccccc1C(=O)OC (centres undefined),i
O=C(NCC1CCCO1)c1ccc(C2SCC(=O)N2Cc2ccccc2)cc1 (centres undefined),3%
Cc1ccc(OCCCCN2CCCC(C)C2)c([N+](=O)[O-])c1 (centres undefined),4%
O=[N+]([O-])c1ccc(-c2nc(Nc3ccc4c(c3)OCCO4)c3ccccc3n2)cc1,5%
COc1ccc(NC(=O)C(C)Sc2ccccc2)c(OC)c1 (centres undefined),i
O=C(Nc1ccccc1-c1nc2ccccc2s1)c1ccccc1Br,i
Cc1ccc(NS(=O)(=O)N2CCCC2)cc1,6%
CC(=O)c1ccc(NC(=O)Nc2ccc3nccnc3c2)cc1,i
O=C(Nc1ccc(F)cc1)c1nsc(Cl)c1Cl,0%
C=CCNc1nc(NCCN2CCOCC2)nc(N2CCOCC2)n1,i
COc1ccc(CCNC(=O)CSc2nnc(-c3sc4ccccc4c3Cl)o2)cc1OC,i
NC(=O)c1ccc(-c2ccc(C=O)o2)cc1,i
Clc1cccc(Nc2nc(NCc3ccco3)c3ccccc3n2)c1,1.1µg/mL*
CC1CCCC(C)N1C(=O)c1ccc(C(=O)N2C(C)CCCC2C)nc1 (centres undefined),1%
CC(C)C(=O)N1CCN(c2ccc(NC(=O)c3cc(Br)ccc3Cl)cc2)CC1,i
O=C(CN(Cc1ccccc1)S(=O)(=O)c1ccc2c(c1)OCCO2)Nc1ccc2c(c1)OCCO2,i
O=C(Nc1ccc(S(=O)(=O)c2ccc(NC(=O)C(F)(F)F)cc2)cc1)C(F)(F)F,i
COc1cccc(-n2nnnc2SCC(=O)Nc2ccccc2OC)c1,i
Cc1cc(OCC(=O)Nc2ccccc2C(=O)Nc2ccccc2)ccc1Cl,i
O=C(O)c1ccc(Nc2nc(-c3ccncc3)cs2)cc1O,17%
c1csc(-c2nn3c(C4COc5ccccc5O4)nnc3s2)c1 (centres undefined),1%
CCOc1ccccc1N1CCN(C(=S)Nc2ccc([N+](=O)[O-])cc2)CC1,i
Cc1ccc(NC(=O)c2cc([N+](=O)[O-])ccc2N(CCO)CCO)cc1Cl,i
COc1ccccc1CNCc1cccc(OC)c1OC,i
CCC1(C)CC(CCN(Cc2ccccc2F)C(C)=O)(c2ccccc2)CCO1 (centres undefined),i
Nc1cccc(S(=O)(=O)NCc2ccco2)c1,i
Cc1nc(Oc2ccc(F)c(Cl)c2)c2c3c(sc2n1)CCCC3,2%
CN1CCN(C(=O)c2cc(F)c(F)cc2Cl)CC1,2%
CC1CCN(S(=O)(=O)c2ccc(NC(=O)CN3CCN(c4ccccc4)CC3)cc2)CC1,i
CCc1c(C)[nH]c2nc3ccccc3n2c1=O,13%
COc1ccc(Br)cc1C(=O)Nc1nnn(C)n1,i
COc1ccc(S(=O)(=O)N(C)CC(N)=O)cc1,i
CCc1nc(SCC(=O)NCCc2ccccc2)n[nH]1,i
COc1ccc(C(=O)O)cc1NC(=S)NC(=O)c1cccc([N+](=O)[O-])c1C,i
COc1ccc(OCCC(=O)Nc2nccs2)cc1,i
COc1ccc(CCNC(=O)c2nc(SCc3ccccc3)ncc2Cl)cc1OC,i
O=C(CSc1ccccn1)Nc1ccccn1,i
Cc1[nH]c2ccccc2c1/C=C(\C#N)S(=O)(=O)c1ccccc1,i
# Next part.
SMILES,Mtb H37Rv
COCCN(CCOC)C(=O)Cc1c(OC)ccc2cc(Br)ccc12,i
O=C(CSc1nccn1Cc1ccccc1)Nc1nccs1,i
COc1ccc(COc2ccccc2C(=O)Nc2cc(C)cc(C)c2)cc1[N+](=O)[O-],i
Cc1ccc(-c2nnc(NCc3ccccc3)c3ccccc23)cc1S(N)(=O)=O,15%
COc1cc(C(=O)N2CCC(C(=O)Nc3cccc(C)c3C)CC2)cc(OC)c1OC,i
CCOc1ccccc1-n1c(CN2CCN(C(=O)c3ccco3)CC2)nc2ccccc2c1=O,i
CN(CCOc1ccc(F)cc1)Cc1ccccc1,4%
O=C(CN(C1CCCCC1)S(=O)(=O)c1ccc(F)cc1)Nc1ccc(Br)cc1F,12%
COc1ccc(-c2cc(=O)[nH]c(SCC(=O)Nc3cc(Cl)cc(Cl)c3)n2)cc1,i
Cc1ccc(NC(=O)Nc2cnc3ccccc3c2)cc1,i
Cc1c(C(=O)NN2CCOCC2)oc2ccccc12,i
Cc1cc(OCC(=O)Nc2ccc(S(=O)(=O)NC(C)(C)C)cc2)ccc1Cl,i
Cc1ccc(OCC(=O)Nc2cc(NC(=O)COc3ccc(C)c(C)c3)cc(C(=O)O)c2)cc1C,i
Cc1nc(Nc2ncc3c(n2)CC(C)CC3=O)nc2ccccc12 (centres undefined),i
COc1ccc(S(=O)(=O)N2CCN(C(=O)C(c3ccccc3)c3ccccc3)CC2)cc1,i
Cc1ccc(N2CCN(C(=O)c3cc4cc(Cl)cc(Cl)c4oc3=O)CC2)cc1Cl,i
C=CCn1c2ccc(Cl)cc2c2nc3ccccc3nc21,8%
COc1cc(Cl)c(S(=O)(=O)Nc2ccccc2C)cc1Cl,i
Cn1c(CCNC(=O)c2ccccc2)nc2cc(NS(=O)(=O)c3ccccc3)ccc21,i
Cc1cc(C)c2c(=O)c3ccccc3[nH]c2n1,2%
CC1CCCCN1S(=O)(=O)c1ccc(NC(=O)C2COc3ccccc3O2)cc1 (centres undefined),i
Cn1nnc2cc(NC(=O)N3CC4(C)CC3CC(C)(C)C4)ccc21 (centres undefined),i
COc1ccc(-c2cc(C(F)(F)F)c3c(N)c(C(=O)N4CCCC4)sc3n2)cc1OC,i
O=C(c1ccco1)c1c[nH]c2ccccc12,i
Cc1ccc(-n2c(SCC(=O)Nc3c(C)cccc3C)nc3ccccc3c2=O)cc1,1%
CCOC(=O)c1ccccc1NC(=O)c1cccc(NC(=O)c2ccccc2)c1,i
C=CCn1c(=O)c2c3c(sc2n2c(Nc4ccc(OC)cc4)nnc12)CCC3,3%
S=c1[nH]nc(-c2cccs2)n1-c1ccc2c(c1)OCCO2,i
O=C(O)CSc1nc2ccccc2[nH]1,i
O=C(Nc1ccncc1)c1cc(-c2ccc(Br)cc2)nc2ccccc12,6%
NC(=O)c1ccccc1NC(=O)Nc1ccc(Cl)c(Cl)c1,i
COc1ccc(NC(=S)Nc2ccc3nccnc3c2)cc1,i
COc1ccc2nc(NC(=O)CN3CCN(c4ccccc4F)CC3)sc2c1,3%
N#C/C(=C/c1ccc[nH]1)c1ccc2c(c1)OCO2,5%
CS(=O)(=O)NCc1ccc(C(=O)NCc2ccccc2)cc1,i
COc1ccccc1CC(=O)N1CCCC1,i
O=C(NC(=O)N1CCCCC1)c1ccc(Cl)cc1,i
CCOc1ccc(-n2nc3ccc(NC(=O)c4ccc(C)c(C)c4)cc3n2)cc1,i
COC(=O)c1sc(NC(=S)Nc2cccc(C(=O)NCc3ccccc3)c2)c(C(=O)OC)c1C,i
O=C(O)c1ccc(NC(=S)NC(=O)c2cccc(Cl)c2)cc1,i
COc1ccc(Cl)cc1NC(=O)COc1cc(Cl)c(Cl)cc1Cl,i
